TRPML1 agonist = agonists of human TRPML1 channel | Q9GZU1 | TRPML1-expressing cells, Ca2+ dye fluorescence, FDSS; host cell line not named in the record; reference of the full effect not given here | activation, % (no concentration beside the values) | hit rate 0.12% among 410,000; in the data active = activation above about 50%; inconclusive = about 30% to 50%; inactive = below about 30%; also: 0% is about no effect; the text of the record puts the active cut at 80%
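Tetracycline-induced TRPML1-DL cells are seeded and incubated overnight before loading with a no-wash Ca2+ dye and quencher. Agonist activity is taken from the 110 s fluorescence read following compound pin-transfer on an FDSS, before EC80 54-4 challenge.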
TRPV1 PAM = potentiators of human vanilloid receptor 1 (TRPV1). TRPV1-expressing cells, Fluo-8 calcium influx, capsaicin EC20 potentiation; host cell line not named in the record; control for the full effect not named in the record. potentiation, % at 8.33 µM. hit rate 0.02% among 320,000; active means potentiation above 80%; inconclusive means 30% to 80%; inactive means below 30%; also: 0% is about no effect
Target sequence (Q8NER1 whole entry, looked up): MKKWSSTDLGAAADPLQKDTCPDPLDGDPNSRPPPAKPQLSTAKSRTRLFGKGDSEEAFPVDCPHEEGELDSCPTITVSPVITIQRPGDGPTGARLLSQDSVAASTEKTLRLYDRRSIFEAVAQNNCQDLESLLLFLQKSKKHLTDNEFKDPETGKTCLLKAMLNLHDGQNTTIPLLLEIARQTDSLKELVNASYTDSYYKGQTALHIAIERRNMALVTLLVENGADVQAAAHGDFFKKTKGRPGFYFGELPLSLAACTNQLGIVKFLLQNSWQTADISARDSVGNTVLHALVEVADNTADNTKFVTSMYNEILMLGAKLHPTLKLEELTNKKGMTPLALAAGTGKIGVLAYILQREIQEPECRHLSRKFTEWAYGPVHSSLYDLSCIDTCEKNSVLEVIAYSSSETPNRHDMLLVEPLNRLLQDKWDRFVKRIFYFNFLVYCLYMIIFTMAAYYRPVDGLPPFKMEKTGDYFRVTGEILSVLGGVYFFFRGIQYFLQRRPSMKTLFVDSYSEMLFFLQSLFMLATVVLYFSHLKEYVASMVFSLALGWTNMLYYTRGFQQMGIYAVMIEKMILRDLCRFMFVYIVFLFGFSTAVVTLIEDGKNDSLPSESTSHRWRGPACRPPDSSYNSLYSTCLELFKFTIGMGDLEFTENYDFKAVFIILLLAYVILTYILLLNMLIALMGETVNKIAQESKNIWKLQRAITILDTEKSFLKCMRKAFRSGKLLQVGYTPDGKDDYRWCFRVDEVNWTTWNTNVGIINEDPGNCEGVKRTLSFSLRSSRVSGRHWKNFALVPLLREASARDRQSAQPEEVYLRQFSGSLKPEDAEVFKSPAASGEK
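TRPV1-expressing cells were cultured overnight at 35.5C and loaded with Fluo-8 calcium dye for 40 to 90 min at room temperature. After a 10 s baseline, compound was added and calcium influx was read kinetically for 3 min (ex 480/em 520 nm).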
Menin MLL FP FL = displaces fluorescein MLL peptide from human menin | Fluorescence polarization, fluorescein-MLL peptide displacement from menin | FP activity change, % at 61.4 µM | 290,000 tested, under 10 active | AID 1766; inconclusive = falling polarisation curve, or a change in total fluorescence; inactive = total fluorescence flat and polarisation flat or rising; no compound was filed as active; the % refers to the polarisation; negative = inhibition;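 also: % of control where 0% means no effect; inhibitors lower the polarisation; unlabelled MLL peptide was the positive control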
PINK1 expr mod = PINK1 expression modulation | hit rate 0.2% among 410,000 | PINK1 immunofluorescence, high-content cytometry, 24 h | Potency, µM (titrated, usually from 76.6 µM), for inactives: at the top dose activation (PINK1 increase), usual class: activators; active = well fitted activation curve with a large enough effect; inconclusive = small, poorly fitted or top-dose-only effect; inactive = flat fitted curve, though single readings scatter; cell line not stated here;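 also: potency is read from the fitted curve at half-maximal effect; % of control where 0% means no effect; nearly all actives have a fitted effect of over 65% in size; a mitochondrial uncoupler was the plate control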
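PINK1 protein, normally rapidly degraded, was detected by immunofluorescence after 24 hour compound treatment of a stable cell line. Titration data (5 concentrations) came from laser-scanning cytometry, with CCCP-treated wells as controls.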
Sfp inh = inhibitors of Bacillus subtilis Sfp phosphopantetheinyl transferase | Q9F4F7 | Potency, µM, for the others: max response, negative = inhibition, actives largely listed as inhibitors | hit rate 3.5% among 310,000 | Biochemical Sfp PPTase activity, qHTS | AID 1490; active = well fitted inhibition curve with a large enough effect; inconclusive = small, poorly fitted or top-dose-only effect, or another doubt; inactive = no such curve, though single readings can be large or run the other way;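 also: the enzyme is Sfp with the accession as filed and its product quenches rhodamine fluorescence; potency is read from the fitted curve at half-maximal effect; 0% = enzyme reaction without inhibitor and -100% = no enzyme wells; top concentration of the series not given in the record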
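Buffer: 50 mM Hepes-Na pH 7.6, 10 mM MgCl2, 0.01% Nonidet P-40, 0.01% BSA. Enzyme 15 nM, pre-exposed to compound 15 min; substrates then added and fluorescence change tracked over 30 min.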
TRPML1 inh = blocks the human TRPML1 channel | TRPML1-inducible cells, Ca2+ dye fluorescence, FDSS; active compounds read low; inhibition of EC80 agonist-evoked calcium signal | activity change, negative = inhibition, % (concentration not given with the values) | hit rate 0.02% among 390,000 | AID 624415; in the data active means activity change below about -50%; inconclusive means about -30% to -50%; inactive means above about -30%;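 also: stimulus is agonist 54-4 at its EC80 concentration; % is scaled to controls: 0 for no effect and ±100 for the full control effect; the text of the record puts the active cut at -80%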
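TRPML1-DL cells, Tet-induced overnight (~16 h, 37 °C) at 1,500 cells/well, were loaded with Ca8 no-wash dye plus quencher for 45-90 min at room temperature. Compounds were pinned during FDSS kinetic reading; agonist 54-4 at EC80 (4 uM final) then added.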
ClpP mod = qHTS Assay for Activators of ClpP | purified B. subtilis ClpP, FRET peptide cleavage, 20 min | Potency, µM (highest dose often 57.5 µM), for inactives: at the top dose activity change, negative = active | hit rate 1.9% among 340,000; active = well fitted falling curve with a large enough effect; inconclusive = small, poorly fitted or top-dose-only effect; inactive = no such curve, though single readings can be large or run the other way; also: potency is read from the fitted curve at half-maximal effect; the source files actives as falling curves though it sought activators and does not explain the sign; nearly all actives have a fitted effect of over 65% in size; many hits overshoot -100%
Target sequence (P80244 whole entry, looked up): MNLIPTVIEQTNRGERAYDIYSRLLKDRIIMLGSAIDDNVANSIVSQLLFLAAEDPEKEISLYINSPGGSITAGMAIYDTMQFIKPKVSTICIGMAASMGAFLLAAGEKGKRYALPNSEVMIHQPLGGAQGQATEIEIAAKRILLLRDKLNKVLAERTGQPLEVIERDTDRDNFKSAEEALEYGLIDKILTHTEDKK
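Buffer: 100 mM Tris/HCl pH8, 100 mM KCl, 0.05% low protease BSA, 2.5% glycerol, 0.01% Tween-20. ClpP 10 microg/mL final; 20 min RT; delta FRET normalized to ADEP and DMSO controls.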
Starred values were filed as active, the others as inactive; ? = inconclusive; . = no result given; & = joins results of further samples; [ ] = remark or other dose. No enrichment for hits. About 4.4% of those tested had a hit in this group.

SMILES	TRPML1 agonist	TRPV1 PAM	Menin MLL FP FL	PINK1 expr mod	Sfp inh	TRPML1 inh	ClpP mod
NS(=O)(=O)c1cccc(NC(=O)c2cccc(S(=O)(=O)N3CCCCCC3)c2)c1	-0.2	.	.	-0.9%	.	-6	-0.8%
c1cc(-c2ccc3nncn3c2)ccc1CN1CCOCC1	0.1	.	.	0.2%	.	.	-12%
COc1cc(C=O)ccc1OCCOCCOc1cc(C)ccc1Cl	3.6	18	-1.9	-3.0%	17%	17	-3.1%
Cc1cc2c(cc1S(=O)(=O)NCc1ccc(N(C)C)cc1)OCC(=O)N2	-0.7&-1.0	-7	-1.9	-0.1%&0.1%	3%	-3&-10	0.0%&-1.5%
COc1ccc(C2N=C(c3ccccc3)C(C)(C)N2O)cc1 (configuration not stated)	0.6	4	-2.6	-0.8%[38.3 µM]	6%	0	-0.5%
O=C(O)c1cc(-c2ccc(Cl)cc2)n(-c2cccc(Cl)c2)n1	0.3	?	2.7	-0.3%	12%	-11	.
O=[N+]([O-])c1ccc2c(c1)c(-c1ccccc1)nc1nncn12	-0.8	8	1.1	1.2%	-8%	27	.
O=C(Nn1cnnc1)c1ccc(Cl)cc1[N+](=O)[O-]	1.5	18	0.1	-0.7%	15%	29	0.4%
O=S(=O)(c1ccccc1)N(CC1CO1)c1cc(Cl)ccc1Cl (configuration not stated)	0.8	-13	-1.2	0.7%	12%	2	.
Cc1cc(C(=O)N/N=C/c2ccc(Cl)c([N+](=O)[O-])c2)c(C)n1-c1ccc(F)cc1	0.4	1	4.3	-1.9%	-23%	-28	-4.1%
COc1cc(OC)c(NC2=C(c3ccc(C(F)(F)F)cc3)C(=O)c3ccccc32)cc1Cl	2.6	.	.	1.7%	.	26	-6.6%
CSc1n[nH]c(NCc2ccc(Cl)cc2)n1	-0.3	-13	0.0	.	-2%	-2	-0.4%
COc1ccccc1CCNC(=O)CSc1ccc(-c2ccco2)nn1	-0.8	-2	10	-1.5%	22µM*	0	.
CCCc1nc2ccc(NC(C)=O)cc2c(=O)n1Cc1ccccc1Cl	2.3	3	1.1	3.0%	1%	34	-23%
CCN1CCC[C@H]1CNC(=O)c1c(OC)ccc(Br)c1OC	-0.1	-7	?	0.4%	4%&13%&1%	-5	1.8%
c1coc(-c2nnc(SCc3cn4ccccc4n3)o2)c1	0.7	-6	2.2	-0.8%	-7%	10	-2.6%
Cc1ccc(C(=O)OCC(=O)NCCc2ccc(F)cc2)cc1S(=O)(=O)N1CCOCC1	0.8	.	.	-0.4%	.	9	-2.7%
O=C(c1cc(-c2cccs2)on1)N1CCc2ccccc2C1	0.9	-9	3.1	12%[38.3 µM]	-13%	3	-0.5%
CN(C)c1cccc2c1c(NC(=O)Nc1ccccc1)nn2C	-0.5	-13	-0.8	-0.2%	-3%	30	4.2%
O=C(COC(=O)c1ccccc1Br)NCCN1C(=O)CSC1=O	0.3	1	-1.4	2.0%	8%	11	.
CCCCOc1ccc(CNC(=O)Cn2ncn3c(cc4cc(F)ccc43)c2=O)cc1	-0.3	.	.	0.3%	.	-4	-12%
CC(C)(C)c1ccc(CSc2nnc(-c3ccccc3NC(=O)c3ccccc3)o2)cc1	0.1	16	4.4	3.0%	-12%	-1	28µM*
Cc1ccc(CNC(=O)CSc2c3c(nc4cc(Cl)ccc24)CCCC3)cc1	0.6	.	.	-0.1%	.	-8	4.6%
COc1cc(OC)cc(C(=O)Nn2cc(C(=O)Nc3ccc(F)cc3F)c3ccccc3c2=O)c1	1.2	2	-0.9	1.9%	11%	4	-3.4%
Cc1noc(N)c1C1(O)C(=O)N(C(C)C)c2ccccc21 (configuration not stated)	-0.5	-2	-7.2	-1.4%	15%	-14	.
COC(=O)c1sccc1S(=O)(=O)N(CC(=O)NCc1ccccc1)c1ccccc1	0.2	.	.	2.4%	.	-4	-1.5%
O=C(N/N=C\C=C\c1ccc2c(c1)OCO2)C1COc2ccccc2O1 (configuration not stated)	0.9	-12	6.1	3.1%	4%	26	-19%
CCC(=O)N1CCc2cc(S(=O)(=O)CCC(=O)Nc3ccc(OC)cc3)ccc21	0.2	0	.	1.2%	8%	-4	2.3%
CCOc1ccc(N2CCCn3c2nc2c3c(=O)n(CCc3ccccc3)c(=O)n2C)cc1	.	6	-1.9	.	14%	.	.
CC(=O)NC(=S)Nc1ccc(S(=O)(=O)Nc2ncccn2)cc1	0.0	5	-1.0	-0.3%	23%	7	-0.2%
CCOC(=O)c1c(C)nn(Cc2ccccc2)c1N	2.0	-5	-2.4	-0.4%	-3%	-16	-0.3%
Cc1cccc(NC(=S)NC2CC3CCCC(C2)N3Cc2cccs2)c1C (configuration not stated)	-0.1	26	3.4	.	14%	2	-2.1%
CCOc1ccc(C(C)=O)cc1CN1C(=O)NC2(CCCCCCC2)C1=O	-0.4	-21	0.4	3.2%	-1%	-10	-0.7%
COC(=O)c1ccccc1NC(=O)C1CCN(S(C)(=O)=O)CC1	0.8	-5	3.6	1.7%[38.3 µM]	9%	15	?
CC1=NNC(=O)C1CCC(=O)N/N=C/c1ccc(Cl)cc1 (configuration not stated)	0.4	8	3.0	0.9%	-3%	30	.
O=C(CCn1c(=O)c2cccn2c2cccnc21)NCc1ccccc1Br	-0.6	.	.	1.5%	.	9	-29%
CC(Oc1cc2oc(=O)c3c(c2cc1Cl)CCC3)C(=O)NCCCN1CCCC1=O (configuration not stated)	-0.1	2	.	-0.6%	5%	12	3.5%
COc1cc(OC)cc(C(=O)NCC(=O)OCC(=O)N2CC(C)CC(C)C2)c1 (configuration not stated)	0.4	13	-1.1	0.9%	-11%	-1	-9.3%
O=C(c1ccco1)N1CCN=C1SCc1cccc(Cl)c1	-0.4	-9	5.2	5.7%	10%	-6	1.2%
O=C(c1ccc(CN2CCOCC2)cc1)N1CCN(c2ccccc2F)CC1	0.7	-7	-2.4	-1.3%	11%	-9	-1.7%

Entries of single compounds as entered above.
Results for `CC(=O)NC(=S)Nc1ccc(S(=O)(=O)Nc2ncccn2)cc1` = TRPML1 agonist: 0.0; TRPV1 PAM: 5; Menin MLL FP FL: -1.0; PINK1 expr mod: -0.3%; Sfp inh: 23%; TRPML1 inh: 7; ClpP mod: -0.2%
Results for `COC(=O)c1ccccc1NC(=O)C1CCN(S(C)(=O)=O)CC1` = TRPML1 agonist: 0.8; TRPV1 PAM: -5; Menin MLL FP FL: 3.6; PINK1 expr mod: 1.7%[38.3 µM]; Sfp inh: 9%; TRPML1 inh: 15; ClpP mod: ?

More compounds follow.
SMILES	TRPML1 agonist	TRPV1 PAM	Menin MLL FP FL	PINK1 expr mod	Sfp inh	TRPML1 inh	ClpP mod
CSc1ccccc1-c1ccc2nccn2c1	-0.8	.	.	4.3%	.	.	-0.6%
O=[N+]([O-])c1ccccc1N=Nc1c(O)[nH]c2ccc(F)cc12	0.2	.	.	1.4%	.	-13	0.7%
O=C(c1ccc(S(=O)(=O)N2CCCC2)cc1)N(c1ccc(F)cc1)C1C=CS(=O)(=O)C1 (configuration not stated)	1.7	-6	0.5	-0.3%	19%	10	3.6%
Cn1c(=O)c2[nH]c(CNc3ccc(C(=O)O)cc3)nc2n(C)c1=O	-0.1	9	-0.7	2.0%	?	2	-0.2%
O=C(NCc1cccnc1)c1ccccc1NS(=O)(=O)c1ccc(F)cc1	0.0	8	-0.1	?	4%	-17	?
COc1cccc(NC(=O)COC(=O)c2ccc3c(c2)OCCO3)c1	-0.6	.	.	0.5%	.	4	-8.8%
O=C(Oc1cccc(N2C(=O)CCC2=O)c1)c1ccccc1	-0.4	-1	2.8	1.6%	8%	6	0.5%
COc1ccc(NC(=O)COc2cccc3c2CCN(Cc2cccnc2)C3=O)cc1	0.5	-3	.	0.7%	17%	-2	0.5%
COC(=O)c1cc(=O)c2c(ccc3oc(=O)ccc32)[nH]1	-0.8	.	.	0.2%	.	.	29%
CN(c1ccccc1)S(=O)(=O)c1ccc(C(=O)NCc2ccco2)cc1	-0.4	12	.	3.6%	.	28	-0.2%
Cc1ccc2nc(NNC(=O)c3ccc(S(=O)(=O)N4CCc5ccccc5C4)cc3)sc2c1	-0.4	21	0.4	9.4%	-9%	-1	-2.0%
CC(C)(C)C(=O)NC(=S)N1CCCC1	0.9	-10	6.6	-1.5%	4%	-6	0.3%
CCCCC(c1nc2ccccc2[nH]1)n1c(=O)c(-c2ccccc2)nc2cc(C)c(C)cc21 (configuration not stated)	-0.1	.	.	1.4%	.	.	?
Cc1ccc(OCC(=O)Oc2cccc(C)c2C)cc1	.	12	-0.7	-1.1%	0%	.	-3.4%
COc1ccccc1CC(=O)NC1CCN(Cc2ccccc2)CC1	0.3	-12	2.8	-3.3%	7%	0	-4.0%
O=C(COC(=O)c1ccccn1)Nc1ccccc1Cl	0.5	?	-5.0	-1.4%	?	52	-2.8%
Cc1ccc(C)c(NC(=O)CN2C(=O)c3cccc4cccc2c34)c1	1.5	.	.	3.5%	.	6	-2.0%
CCC(C)Sc1nc2c(cnn2-c2ccccc2)c(=O)[nH]1 (configuration not stated)	-1.3	14	-0.6	4.3%	-8%	-1	1.2%
Cc1cc2cc(C(c3nnnn3C(C)(C)C)N(Cc3ccco3)CC3CCCO3)c(=O)[nH]c2cc1C (configuration not stated)	0.0	-16	3.5	.	-17%	2	-19%
CSc1cccc(NC(=O)C2CCN(S(=O)(=O)c3ccc4c(c3)NC(=O)CO4)CC2)c1	0.2	16	4.9	-0.3%	6%	-7	4.4%
O=c1c2ccccc2n(Cc2ccccc2Cl)c(=O)n1CCc1ccccc1	-0.1	.	.	2.6%	.	-11	-6.1%
CCCC(=O)Nc1ccccc1-c1nnc(SCC)[nH]c1=O	.	24	-2.2	0.1%	12%	.	1.1%
CC(=O)Nc1ccc(-c2ccnc3c2CC(C)(C(=O)NCc2ccncc2)O3)cc1 (configuration not stated)	0.2	.	.	0.8%	.	.	4.6%
Cc1sc2ncn(CC(=O)NCCCC(=O)N3CCN(c4ccccc4)CC3)c(=O)c2c1C	-0.6	-6	1.5	-0.5%	7%	14	-0.7%
Cc1ccc(Sc2cnccc2C#N)cc1	0.6	-11	5.8	-0.1%	6%	7	1.1%
COc1cc(OC)c(C(=O)O/N=C(\N)c2ccccn2)cc1OC	2.6	8	-1.6	-0.6%	7%	-20	-0.8%
CC(=O)SC1CC(=O)C=C2CCC3C4CCC(=O)OC4(C)CCC3C21C (configuration not stated)	0.9	.	.	0.7%	.	11	-7.3%
